NPYLR7 ag: activates Aedes aegypti NPYLR7 receptor. HEK293T NPYLR7/Galpha15, GCaMP6s calcium fluorescence. activation, % at 10 µM. 0.15% of 270,000 active. AID 1259423; in the data active = activation above about 40%;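 also: 0% = vehicle and 100% = reference agonist at the receptor; some compounds past the cut are filed as inactive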
NPYLR7 ag max-min: further read-out of NPYLR7 ag, marked with its call; activation, %; measured here: Max-Min RFU normalised activation; some inactives read as strong as hits;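 span of the calcium signal over five minutes; 0% = vehicle and 100% = native peptide agonist; compound fluorescence can raise it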
* marks the source's active call; other numbers are inactive results; & = joins results of further samples. An excerpt; rates above refer to the full screens.

canonical_smiles | NPYLR7 ag | NPYLR7 ag max-min
CC(C)Cc1nnc(NC(=O)c2ccccc2Cl)s1 | 4.5 | 7.9
O=c1[nH]c(NCC(O)c2ccc(OC(F)F)cc2)nc2ccccc12 (centres undefined) | 7.3 | 4.7
CCCc1cc(C(=O)OCC)c(NC(=O)CCC(=O)OCC)s1 | -9.2 | -12.6
CCc1cccc2c(C(CC(=O)NCCN3CCCC3)c3ccc4c(c3)OCO4)c[nH]c12 (centres undefined) | 4.1 | 10.0
O=C(/C=C/c1cccc(F)c1)N1CCC(n2c(Cc3ccccc3)nc3ccccc32)CC1 | -6.0 | -10.3
COC(=O)NC1CCN(c2ccccc2C(=O)N2CCN(c3ccccn3)CC2)CC1 | 1.1 | 11.0
CCOC(=O)C1(C/C=C/c2ccccc2)CCCN(C(=O)CCc2cnccn2)C1 (centres undefined) | -4.1 | -9.4
Cc1ccc(C(C)C)cc1OC(C)C(=O)Nc1nncs1 (centres undefined) | -0.3 | -2.8
CC(C)CN(CCC#N)CC(=O)c1ccc[nH]1 | -2.0 | -9.5
Cc1ccc(Nc2nc(N)nc(COC(=O)C(C)Sc3ccccc3)n2)cc1 (centres undefined) | 1.0 | 9.0
N#CC1(c2ccccc2)CCC2(CC1)N=C(N)Nc1nc3ccccc3n12 (centres undefined) | -0.3 | -2.1
COC(=O)c1ccc(C2CCN(C(=O)CN3C(=O)C(CC(C)C)NC(=O)c4ccccc43)CC2)cc1 (centres undefined) | 1.8 | 6.8
O=C(Nc1cccc(O)c1)c1cnn2c1NC(c1cccs1)CC2C(F)(F)F (centres undefined) | 4.4 | 4.5
Cc1ccsc1[C@@H]1CCN(C(=O)Cn2[nH]c(=O)ccc2=O)C[C@H]1O | 0.2 | -2.7
CCCN(CC1COc2ccccc2O1)C(=O)c1cnc(CC)[nH]1 (centres undefined) | -3.2 | -3.6
Cc1ccccc1C(=O)N1CCN(c2cc(Oc3ccc(Cl)cc3)ncn2)CC1C (centres undefined) | 8.5 | 9.1
OCC1CCCCN1CCn1ccnc1-c1cc2c(cc1Cl)OCO2 (centres undefined) | 2.5 | 0.7
O=S1(=O)CCN2C=C(Cc3cc(Cl)ccc3Cl)SC2=N1 | 3.0 | -0.1
COc1cccc(C2NCCCn3cccc32)c1O (centres undefined) | -4.7 | -0.3
CC(C)C(NC(=O)c1ccccc1Cl)c1nc(-c2cccnc2)no1 (centres undefined) | -0.3 | -4.4

Five records drawn at random from those above:
canonical_smiles | NPYLR7 ag | NPYLR7 ag max-min
COC(=O)c1ccc(C2CCN(C(=O)CN3C(=O)C(CC(C)C)NC(=O)c4ccccc43)CC2)cc1 (centres undefined) | 1.8 | 6.8
O=S1(=O)CCN2C=C(Cc3cc(Cl)ccc3Cl)SC2=N1 | 3.0 | -0.1
Cc1ccc(C(C)C)cc1OC(C)C(=O)Nc1nncs1 (centres undefined) | -0.3 | -2.8
CCCc1cc(C(=O)OCC)c(NC(=O)CCC(=O)OCC)s1 | -9.2 | -12.6
O=C(/C=C/c1cccc(F)c1)N1CCC(n2c(Cc3ccccc3)nc3ccccc32)CC1 | -6.0 | -10.3

More entries
canonical_smiles | NPYLR7 ag | NPYLR7 ag max-min
CCN(C(=O)Nc1c[nH]c2ccccc12)c1cccc(C)c1 | 5.4 | 1.7
Cc1ccc(N2CC(C)Cn3c2nc2c3c(=O)n(CCN3CCOCC3)c(=O)n2C)cc1C (centres undefined) | 26.3 | 13.7
Cc1cccc2sc(N(CCCN(C)C)C(=O)CN3C(=O)CCC3=O)nc12 | 2.7 | 0.1
O=C(CCC(=O)N1CCCCC1CCc1cccc(O)c1)NC1CCCC1 (centres undefined) | -3.9 | -4.6
Cc1ccc(C(=O)Nc2ccc(CNC(=O)NC(C)C)cc2)cc1[N+](=O)[O-] | -6.7 | -11.4
CCOc1ccccc1C(=O)N1[C@@H](c2ccccc2)[C@@H](C(=O)O)C[C@]12CCCCN(CCO)C2=O | 3.0 | 12.0
Cc1ccc(NC(=O)c2cccn(OCc3ccccc3F)c2=O)cc1F | 4.1 | 3.4
CCN(CC)c1onc(-c2ccc(F)cc2)c1CN(Cc1ccc2c(c1)OCO2)CC(O)COC (centres undefined) | -0.9 | 10.6
Brc1cc(CNc2cccnc2N2CCCC2)cs1 | 6.6 | 3.4
O=C(c1cc(CCc2ccccc2)no1)N1CCCC1c1nc2ccccc2s1 (centres undefined) | -4.1 | -0.7
Fc1ccc(-c2cnc3ccccc3n2)cc1 | 2.1 | 0.2
COC[C@@]12CN(C(=O)NCc3ccccc3)C[C@@H]1C(C)(C)COc1ccc(OC)cc12 | 0.8 | 2.0
CS(=O)(=O)Oc1ccc(CN(Cc2ccco2)C(=O)Nc2ccc(C(F)(F)F)cc2)cc1 | 14.8 | 9.9
CC(C)CCn1c(CN2CCCCC2C)nc2c1c(=O)n(C)c(=O)n2C (centres undefined) | 2.6 | 4.4
O=C(Nc1ccc(F)c(Cl)c1)N1CCN(c2ccc3nnc(C4CC4)n3n2)CC1 | 0.5 | 6.0
CCOC(=O)N1CCc2nc(NC(=O)c3cc(Cl)sc3Cl)sc2C1 | -9.9 | -15.3
CCOC(=O)N1CCN(C(=O)CSc2ncnc3c2nnn3Cc2ccc(F)cc2)CC1 | 2.4 | 27.1
Cc1cc(C)n(-c2ccc(Nc3ccc(NC(=O)C4CCCC4)cc3)nn2)n1 | -1.7 | -5.1
CNCCCN1C(=O)C(C)SC1c1sccc1C (centres undefined) | -0.4 | -4.9
Cc1occc1C(=O)Nc1cccc(C#Cc2cccs2)c1 | 2.6 | 0.1
CCCCCC=CCC1CC(=O)N(C2CCN(Cc3cccnc3)C2)C1=O (centres undefined) | -11.1 | -13.9
Cc1nc(=O)[nH]c(C)c1CCC(=O)N1[C@@H]2CC[C@H]1CN(C)C(=O)C2 | -2.0 | 2.7
CCCCc1ccc(-c2ccc(-n3cncc3C(=O)NCCC3=CCCCC3)cc2)cc1 | 3.0 | 2.0
COc1ccc(-c2cccc(-c3noc(C)n3)c2)c(OC)c1OC | 0.6 | 0.9
OC1(c2ccc(-c3cccc4ccnn34)cc2)CCNCC1 | -3.9 | -3.5
O=C(COc1coc(CN2CCc3ccccc32)cc1=O)NCCc1ccccc1 | 2.0 | -0.1
O=C1CN(C(=O)C2CCC2)CC(O)CN1Cc1cccs1 (centres undefined) | 21.2 | 30.0
CC(C)(C)c1cc2nc(-c3ccccc3F)cc(C(=O)N3CCN(c4ccccc4Cl)CC3)n2n1 | 21.6&-7.7 | 32.5&-3.9
O=c1cc(N2CCC(c3c[nH]c4ccccc34)CC2)nc2ccccn12 | 0.0 | 0.2
CCCCCn1cc(C2CCN(S(=O)(=O)c3ccc4c(c3)CN(C(=O)C(F)(F)F)CC4)CC2)c2ccccc21 | -0.4 | -6.6

An excerpt of the results above, for reference:
canonical_smiles | NPYLR7 ag | NPYLR7 ag max-min
O=C(COc1coc(CN2CCc3ccccc32)cc1=O)NCCc1ccccc1 | 2.0 | -0.1
O=C1CN(C(=O)C2CCC2)CC(O)CN1Cc1cccs1 (centres undefined) | 21.2 | 30.0
CC(C)(C)c1cc2nc(-c3ccccc3F)cc(C(=O)N3CCN(c4ccccc4Cl)CC3)n2n1 | 21.6&-7.7 | 32.5&-3.9
O=c1cc(N2CCC(c3c[nH]c4ccccc34)CC2)nc2ccccn12 | 0.0 | 0.2

Next part.
canonical_smiles | NPYLR7 ag | NPYLR7 ag max-min
Cc1ccc(-c2nccc(C(F)(F)F)n2)c2cccnc12 | 4.4 | -3.2
COc1ccc(N=C2S/C(=C\c3cccs3)C(=O)N2c2ccc(OC)cc2)cc1 | 7.5 | 2.8
COc1ccc(NC(=O)C2CCN(C(=O)CCNC(=O)Nc3ccccc3Br)CC2)cc1 | -2.6 | 5.7
CCCc1n[nH]c(=S)n1CC(=O)O | 6.4 | 10.4
Cc1c(Cl)cnn1CC(=O)Nc1ccc(F)cc1 | -20.9 | -22.9
O=C(CCn1c(=O)oc2cc(Cl)ccc21)NCCc1cccc2cccnc12 | -1.0 | -4.4
CN1C(=O)c2ccccc2NC1c1cccc(NC(=O)c2ccc(Cl)cc2)c1 (centres undefined) | 0.1 | -0.1
Cc1ccc(C)c(C(O)c2ncc(-c3ccc4ccccc4c3)[nH]2)c1 (centres undefined) | 1.9 | 1.0
COc1ccc(NC(=O)N(C)C(C)c2ccc(F)cc2)cc1Cl (centres undefined) | 3.4 | 1.5
O=C(Nc1ccc(F)cc1)C1=CC(=O)N2CCN=C2S1 | 0.4 | 1.2
Cc1nc2c(OCc3cc(Cl)cc(Cl)c3)cccn2c1N(C)Cc1cccs1 | -4.2 | -6.5
Nc1nnc(CC(F)(F)F)s1 | 4.0 | 1.6
Cc1cccc2nc(C(=O)N3CCC(n4cc(C(C)(C)O)nn4)CC3)cn12 | 8.3 | 8.2
CN(C)CCn1ccnc1-c1ccc(-c2nc3ccccc3n2C)o1 | 11.3 | 2.5
CC(C)N(CC(F)F)C(=O)CNC(=O)c1cccs1 | 4.0 | 213.9
Cc1ccc(NC(=O)CSc2nccn(-c3ccc(C)c(C)c3)c2=O)c(C)c1 | -1.1 | -8.9
O=C(O)c1cc(-c2ccco2)nn1-c1ccc(F)cc1 | -5.1 | 1.5
CCOc1ccccc1CN1CCCn2cccc2C1c1ccc(F)cc1F (centres undefined) | 1.1 | 8.1
CCOC(=O)c1cc(C(C)CC(C)(C)C)sc1NC(=O)c1ccc(F)c(F)c1 (centres undefined) | 5.9 | -0.3
CC(C)(C)C(=O)Nc1ccnn1C1CCN(C(=O)c2cccc(Cl)c2)CC1 | 1.8 | -1.3
CCC(C(=O)NCCc1cc(=O)[nH]c(C)n1)n1cc(C(C)=O)c2ccccc21 (centres undefined) | 4.1 | 3.9
Cc1cc(C)cc(NC(=O)C2C3CC4OC(=O)C2C4C3)c1 (centres undefined) | 5.2 | 5.6
COc1cccc(C(CN2CCN(C(=O)CCC3CCCC3)CC2)OCc2ccc(C#N)cc2)c1 (centres undefined) | 2.0 | -1.0
O=C(NC(C(=O)NCc1ccco1)C1CCN(C(=O)C2CC2)CC1)c1ccc(F)cc1 (centres undefined) | -2.5 | -0.6
CCCCCc1ccc(C(=O)N(CC(=O)c2c(C)c(C(=O)OCC)n(CC)c2C)Cc2ccco2)cc1 | -10.4 | -8.9
CCc1oc(C(=O)OC)cc1COc1cccc(CO)c1 | 1.5 | -1.6
CCC(NC(=O)CCn1nc(C)cc1C)c1ccccc1 (centres undefined) | 6.3 | 4.3
CC1(Cc2ccccc2Cl)C(=O)Nc2ccc(Cl)cc21 (centres undefined) | 1.1 | 0.4
CC(NC(=O)NCc1c(F)cccc1Cl)(C(=O)O)c1ccco1 (centres undefined) | 6.9 | 6.2
Cc1nc2ccc(NC(=O)C3(C)CCCN(C)C3)cc2o1 (centres undefined) | 1.2 | 1.8
O=[N+]([O-])c1cccc(S(=O)(=O)NCc2ccc3c(c2)OCO3)c1 | 3.6 | 0.5
CCCOc1ccccc1/C=C1/Oc2ccc(C(=O)OC)cc2C1=O | -1.7 | 7.0
CCCC(=O)N1CCN(c2ccc(-n3cccn3)nn2)CC1 | 11.6 | 8.7
CCOC(=O)c1sc2nc(C)nc(SCC(=O)OC(C)(C)C)c2c1C | 2.5 | 3.7
Cc1nsc(N)c1C(=O)OC(C)C(=O)Nc1ccc(F)c(Cl)c1 (centres undefined) | 4.8 | 12.3
Nc1nnc(-c2cc3cc([N+](=O)[O-])ccc3oc2=O)s1 | -7.5 | -9.5
COc1ccc(Nc2ncc(-c3cccc(OC(F)(F)F)c3)n3ccnc23)cc1 | -3.7 | -8.5
COc1nc2c(cc1C(=O)N1CCCC3(CC1)CNC(=O)O3)CCC2 (centres undefined) | 5.3 | 3.6
CCN(CC)Cc1cnc2c(C(=O)N(C)Cc3ccn[nH]3)cnn2c1 | 8.2 | 6.4
COC(=O)[C@H]1C[C@@H](O)CCN1C(=O)CSc1ccccn1 | 2.2 | -1.5
O=C(NCCN1CCCC1)c1cc2n(n1)CCN(Cc1ccccc1C(F)(F)F)C2=O | 8.5 | -4.7
CCOCCCN(CC(=O)N(Cc1ccccc1)Cc1cccn1Cc1ccc(F)cc1)C(=O)c1ccc(Br)cc1 | 20.5 | 24.7
CCOC1CC(OC(=O)c2sccc2-n2cnnn2)C1(C)C (centres undefined) | 2.8 | -3.4
CCOC(=O)C1NCC2=CC(C)(C)COc3ccc(OC)c1c32 (centres undefined) | -0.6 | 8.2
Cc1cc(NC(C)C)n2nc(C)c(-c3ccc(Cl)cc3)c2n1 | -2.3 | -0.8
CN(Cc1ccc(C(=O)NC2CC2)cc1)C(=O)C1CC(c2cccc(F)c2)=NO1 (centres undefined) | 13.5 | 10.1
COCCN(Cc1cc(NC(=O)C2CCCC2)ccc1N(C)C)C(=O)C1CC1 | -6.3 | -2.8
CC(C)S(=O)(=O)CC(=O)NC1CCCCC1Cc1ccccc1 (centres undefined) | 4.8 | 3.6
CC(c1ccc(-n2cncn2)cc1)N(C)Cc1ccc(C#N)cc1F (centres undefined) | 3.8 | 3.5
Cc1cccc(NC(=O)CCS(=O)(=O)c2ccccc2F)c1C | -5.8 | -7.6

Remaining list, next part.
canonical_smiles | NPYLR7 ag | NPYLR7 ag max-min
COc1ccc(C)cc1NC(=O)CC1CCS(=O)(=O)C1 (centres undefined) | 2.3 | 1.8
CCN(Cc1ccc2c(c1)OCO2)C(=O)Nc1cccc(-n2nnnc2C)c1 | -1.1 | -4.1
COc1ccc(C(=O)NC2CC2)c(OC2CCN(Cc3cccc4nonc34)CC2)c1 | 12.6 | 2.1
Cc1c(C(=O)NCCO)c(C(F)(F)F)nn1C1CCCN(C(C)C)C1 (centres undefined) | 8.9 | -0.5
O=C(CN1Cc2ccc(Nc3cccc(F)c3)nc2C1=O)NCCc1ccccn1 | 0.2 | -0.8
